RanGTP-Impb inh: disruptors of Ran-importin-beta complex formation – biochemical, FRET, CFP-Ran, YFP-importin-beta, homogeneous, primary screen; inhibition, % (concentration not given with the values); 1.1% of 300,000 active; cell-free CFP-Ran/YFP-importin-beta FRET ratio;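 active means most replicates above 15%; inconclusive means exactly half above 15%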;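 further: 0% = DMSO wells and 100% = Ran loaded with GDP instead of GTP; wells of about 40 µL received 100 nL stock; the first replicate is given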
Bfl-1 A1 inh: inhibitors of the anti-apoptotic protein A1, read as caspase activation; caspase activation, % (test concentration not listed); AID 2462; MEF A1-2A-BIM cells, Caspase-Glo 3/7 luminescence, 3 h; percent of clofoctol response, vehicle zero; 0.066% of 330,000 active;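 active means over half of replicate activation scores above 10%, or exactly half above 10 with the replicate mean above 10; inconclusive means replicate mean below 10 yet half the replicates above 10; inactive means over half of replicates below 10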;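 further: wells of about 30 µL received 50 nL stock; many hits fall short of the cut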
Ecoli rRNA inh: inhibitors of bacterial rRNA selective over humanized ribosomes | E. coli WT GFP vs humanized-ribosome RFP mutants, fluorescence, 24 h; hits give low values; DMSO median 0, no signal -100 | GFP signal change (wild-type ribosome), % (concentration not given with the values) | 1.6% of 350,000 active;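 active means significant combined selectivity score with lowered wild-type GFP, culture density cut under 30%, mutant RFP and density less affected; inactive means any of these conditions unmet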; further: one replicate is shown; some compounds called inactive have numbers as strong as hits
Calb FLC: affects C. albicans growth with fluconazole; C. albicans CaCi-2 (fluconazole-resistant clinical isolate) + fluconazole, Alamar Blue growth, 48 h; growth inhibition, % (concentration not given with the values); 0.57% of 300,000 active;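 active means most replicates above 75%; inconclusive means exactly half above 75%; inactive means most below 75%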;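 further: all wells also contain fluconazole at 8 µg/ml as a sub-toxic cotreatment; 0% = median of DMSO wells and 100% = median of geldanamycin control wells; wells of about 8 µL received 7.5 nL stock; the first replicate is given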
AF4-AF9 inh: blocks AF4 peptide binding to human AF9; P42568; AlphaScreen, biotin-AF4 peptide binding to FLAG-AF9; inhibition, % at 10 µM; 0.47% of 350,000 active; AID 651704;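 active means every replicate reaching a set inhibition limit, whatever the replicate mean, cut at about 25% in these data; inconclusive means mean inhibition reaches that limit but some replicates miss it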;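 further: 0% = plate neutral control median and 100% = total signal loss; the record names both 10 and 1 µM as test concentration; the first replicate is given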
Target sequence (P42568 whole entry, looked up): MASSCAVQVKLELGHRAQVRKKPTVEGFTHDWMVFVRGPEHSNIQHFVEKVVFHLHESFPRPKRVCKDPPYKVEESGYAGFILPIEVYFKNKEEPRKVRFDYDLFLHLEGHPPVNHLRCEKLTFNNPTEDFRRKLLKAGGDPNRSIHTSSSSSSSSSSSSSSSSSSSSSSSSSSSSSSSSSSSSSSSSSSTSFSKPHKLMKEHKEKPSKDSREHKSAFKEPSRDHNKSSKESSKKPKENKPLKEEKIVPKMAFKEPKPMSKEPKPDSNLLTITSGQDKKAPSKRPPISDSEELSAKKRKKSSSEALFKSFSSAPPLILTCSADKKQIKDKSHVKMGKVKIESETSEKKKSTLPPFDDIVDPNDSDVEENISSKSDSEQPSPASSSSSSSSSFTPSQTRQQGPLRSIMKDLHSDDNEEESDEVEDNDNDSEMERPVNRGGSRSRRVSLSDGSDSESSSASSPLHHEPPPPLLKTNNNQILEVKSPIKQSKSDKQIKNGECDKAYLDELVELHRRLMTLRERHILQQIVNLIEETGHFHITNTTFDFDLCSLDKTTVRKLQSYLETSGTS
T cruzi inh: T. cruzi replication inhibition; T. cruzi beta-gal in NIH3T3, luminescence, 90 h; inhibition, % (test concentration not listed); 1.4% of 300,000 active; AID 1885;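 active means mean inhibition across valid replicates above about 55%, limit read from the data; inconclusive means mean below that limit but half or more replicates reach it; inactive means mean below it, under half of replicates reach it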;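 further: signal also drops with host cell toxicity which is not excluded here; 0% = plate median of DMSO wells and 100% = zero luminescence signal; higher percent means less beta-gal luminescence so fewer parasites; stock transfer was 50 nL into about 50 µL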
Vif TR-FRET: HIV-1 Vif–A3G interaction blockers – biochemical, TR-FRET, GST-Vif 1-94, biotin-A3G peptide, dose response retest, primary screen (AID 1117319); TR-FRET GST-Vif / biotin-A3G peptide binding; higher % means a stronger effect; test concentration not given here; strong numbers were not always called active; inhibition, %, or IC50 in µM where a hit was titrated; 0.57% of 260,000 active;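 active means above the screen mean plus three standard deviations and confirmed in dose response; inconclusive means results disagree or hit not tested in dose response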;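 further: Vif residues 1-94 fused to GST binding biotinylated APOBEC3G peptide 110-148; 0% = full assay without inhibitor and 100% = GST in place of GST-Vif; retest series ran down from 100 µM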
Beta apoptosis: beta cell apoptosis inhibition; INS-1E cytokine-induced death, ATP luminescence, 48 h; percent of positive-control rescue, neutral wells zero; protection from apoptosis, % (concentration not given with the values); 0.8% of 300,000 active; AID 435005;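 active means all replicates at 75% or more, or half of them and the mean; inconclusive means half reach 75% but not the mean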;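 further: 0% = cytokine-treated negative control wells and 100% = positive control rescue; higher means more ATP so stronger rescue from cytokine killing; wells of about 40 µL received 100 nL stock; the first replicate is given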
Ecoli rRNA inh OD600: second read-out of Ecoli rRNA inh, no call of its own (marks repeat the call); OD600 change, %; measured here: OD600 growth;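 optical density of the mix in the first replicate; 0 = DMSO median and -100 = no signal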
Ecoli rRNA inh RFP: second read-out of Ecoli rRNA inh, no call of its own (marks repeat the call); RFP signal change, %; measured here: RFP humanized mutant strains;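 first replicate; 0 = DMSO median and -100 = no signal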
* = called active by the depositor; ? = inconclusive; · = no result given; & = joins results of further samples. The list is partial, so the mix of outcomes need not match the whole.

SMILES | RanGTP-Impb inh | Bfl-1 A1 inh | Ecoli rRNA inh | Ecoli rRNA inh OD600 | Ecoli rRNA inh RFP | Calb FLC | AF4-AF9 inh | T cruzi inh | Vif TR-FRET | Beta apoptosis
C=C(C)CSc1nc(C)c(Cc2ccccc2)c(=O)[nH]1 | -2.0 | 0.5 | · | · | · | -2 | · | -15 | -1% | 3
O=C(NCCCSc1ccccc1)c1cc(Cl)ccc1O | 3.4 | 1.3 | -57 | -77 | -16 | 0 | -8.2 | -4 | · | 0
Cc1ccc(-n2c(-c3ccncc3)nnc2-c2cccs2)cc1 | 3.6 | 0.3 | · | · | · | 17 | · | 15 | -13% | -16
Cc1ccc(C)n1NC(=O)c1ccccc1O | -1.0 | 0.3 | · | · | · | -16 | · | -33 | 9% | 5
COc1ccc(CN2CCN(C(=O)c3ccco3)CC2)cc1OC | ? | 0.3 | 16 | 12 | 2.3 | -6 | -1.0 | -10 | 2% | -4
COCC(=O)Nc1ccc(OC)c(Cl)c1 | 2.5 | 0.5 | 20 | 19 | 5.2 | -12 | 0.3 | -1 | -5% | -3
CCOc1ccc(C(=O)N(CC)CC(=O)Nc2ccc3c(c2)OCCO3)cc1 | · | -0.7 | -3 | -1 | -1.3 | · | -2.9 | · | -12% | 2
COc1ccc(S(=O)(=O)CCC(=O)Nc2ccc(OC)cc2OC)cc1 | -1.4 | 0.0 | · | · | · | 0 | · | 4 | 5% | -11
CC(=O)c1ccc(NC(=O)CSc2nnc(Cn3cnc4ccccc43)o2)cc1 | 5.0 | 0.7 | 12 | 9 | 0.5 | -1 | -0.6 | -9 | 11% | -2
OC(CNC1CCCC1)COc1ccc(-c2ccccc2)cc1 (stereo unspecified) | 3.7 | 0.7 | -10 | -16 | -1.6 | -15 | 3.2 | 39 | 11% | -7
COc1ccc(C)cc1NC(=O)c1cc2c(s1)CCC2 | 1.7 | -0.3 | · | · | · | -8 | · | 26 | -14% | 5
O=C(COC(=O)Cc1ccc2c(c1)OCCO2)Nc1ccc(S(=O)(=O)N2CCCC2)cc1 | 1.1 | 0.4 | · | · | · | 2 | · | -3 | -3% | 0
CCN(C(=O)c1cccc(S(=O)(=O)N2CCc3ccccc32)c1)C1CCS(=O)(=O)C1 (stereo unspecified) | · | -0.2 | 6 | 5 | 0.1 | · | 0.7 | · | -10% | -5
CCCCCC[C@@H]([C@@H](C)O)n1cnc2c(N)ncnc21 | 6.3 | 0.5 | 4 | -2 | 0.4 | -4 | -0.7 | -1 | · | ·
O=[N+]([O-])c1c(Nc2ccccc2O)cc(Cl)c2nonc12 | -3.5 | 0.7 | -11 | 13 | -1.7 | 14 | 15 | 59* | 9.3µM* | -13
CCn1cnc2c1c(=O)n(Cc1cccc(Br)c1)c(=O)n2Cc1ccccc1 | 3.6 | 0.7 | -6 | -28 | -0.5 | -7 | -3.1 | 25 | · | 5
CSc1ncccc1C(=O)OCC(=O)c1cccs1 | -1.2 | -1.6 | -5 | -6 | -2.5 | 6 | -2.0 | -18 | · | 4
Cc1cc(Cl)ccc1NC(=S)N(CCCN1CCOCC1)Cc1cccs1 | 7.0 | 0.3 | · | · | · | -30 | · | 11 | · | -10
COC(=O)c1c(S(C)(=O)=O)nc(-c2ccccc2)[nH]c1=O | 5.8 | 0.8 | · | · | · | 8 | 1.0 | -14 | 4% | -7
COCCNc1oc(COc2cccc(C)c2)nc1C#N | -3.4 | -1.0 | · | · | · | 4 | · | -1 | -12% | -2
CCOC(=O)c1c(C)[nH]c(C)c1C(=O)COC(=O)[C@@H]1CCCN1S(=O)(=O)c1ccc(Cl)cc1 | -2.2 | -0.1 | -42 | -54 | 11 | -8 | 17 | 9 | 2% | -3
CCN(CC(=O)Nc1c(F)cccc1F)C(=O)CCNS(=O)(=O)c1ccccc1C(F)(F)F | 4.2 | 1.2 | 4 | 8 | 0.5 | -4 | 2.8 | -5 | 7% | 2
CCC1(CC)NC(=O)N(CC(=O)NCc2ccc3c(c2)OCO3)C1=O | -1.8 | -0.5 | · | · | · | 0 | · | 1 | -3% | 0
Cc1cc(C)c(S(=O)(=O)c2cccc(Cl)c2)c(=O)[nH]1 | -1.7 | 0.3 | 1 | -2 | -2.5 | 33 | 0.7 | 0 | -1% | -10
CC(=O)c1c(Cl)nc2cccc3c2c1-c1ccccc1C3=O | -1.4 | 0.8 | 7 | 1 | -1.0 | 2 | -0.4 | 9 | · | 8
(next part)
SMILES | RanGTP-Impb inh | Bfl-1 A1 inh | Ecoli rRNA inh | Ecoli rRNA inh OD600 | Ecoli rRNA inh RFP | Calb FLC | AF4-AF9 inh | T cruzi inh | Vif TR-FRET | Beta apoptosis
CN1CCc2c(c3ccccc3n2Cc2ccccc2)C1 | ? | 0.9 | 5 | -10 | -3.5 | -4 | 11&8.7 | 12 | 8% | 3
CC(=O)Oc1cccc(N2C(=O)C3C4C=CC(CC4)C3C2=O)c1 (stereo unspecified) | -3.2 | 1.6 | 6 | 4 | -0.6 | 0 | -2.0 | -8 | -3% | -6
Cc1ccnc(NC(=O)Cc2ccc([N+](=O)[O-])cc2)c1 | -1.1 | -0.3 | 12 | 6 | -0.5 | -23 | 0.6 | 13 | -10% | -4
COc1ccc(C(=O)NC2CCCc3c2cnn3-c2ccccc2F)o1 (stereo unspecified) | 2.9 | 0.3 | 10 | 9 | -1.7 | -5 | -0.7 | -11 | · | -2
COc1cc(F)c(C2=CC(=O)C[C@H](c3ccc4c(c3)OCO4)C2)cc1F | · | -0.7 | -18 | -35 | -23 | · | 3.7 | · | · | 2
CCCS(=O)(=O)N1CCC(C(=O)N2CCCC2)CC1 | -1.4 | 1.0 | · | · | · | -6 | · | 36 | -1% | 0
CCCCOC(=O)c1ccc(NC(c2ccc(C)cc2)P(=O)(OC)OC)cc1 (stereo unspecified) | 2.4 | 0.0 | 8 | 3 | 18 | 4 | -5.4 | 4 | 2% | ?
Cc1cccc(N2CCN(C(=O)c3cccc(N4CCCC4=O)c3)C(C)C2)c1 (stereo unspecified) | 1.7 | -0.4 | 1 | -4 | 1.4 | 28 | 0.5 | -18 | · | 7
CSCCC(NC(=O)c1ccco1)C(=O)N1CCN(Cc2ccccc2)CC1 (stereo unspecified) | 1.0 | 0.0 | 5 | 1 | 1.6 | 2 | -0.2 | -8 | 2% | -9
COc1ccc(N2C(=O)c3ccc(C(=O)Nc4cc(OC)ccc4OC)cc3C2=O)cc1 | 6.3 | 0.2 | -1 | 8 | -4.9 | -4 | -3.3 | -6 | · | -2
Nc1ccc(-c2cc(N)n(-c3ccccc3)n2)cc1 | 1.1 | 0.5 | · | · | · | 2 | · | 2 | -3% | 0
CCOc1ccc(NC(=O)CCCOc2cc(=O)n(C)c3ccccc23)cc1 | -287 | -0.3 | · | · | · | 22 | · | 25 | -4% | -3
CN(C1=NC(=O)C(CC(=O)O)S1)c1ccc(O)cc1 (stereo unspecified) | -3.6 | -0.2 | 25 | 22 | -0.4 | -13 | 0.1 | -10 | 1% | -7
Cn1c(CN2CCCCC2)nc2cc(NC(=O)c3ccccc3)ccc21 | ? | 0.6 | · | · | · | 37 | · | 4 | 12% | -7
CC(=O)Nc1ccc(C(C#N)c2ccccc2)cc1 (stereo unspecified) | -0.1 | 0.4 | -3 | -5 | -1.2 | ? | -1.2 | -12 | -3% | -4
CC(C)NC(=O)c1ccccc1NC(=O)C1COc2ccccc2O1 (stereo unspecified) | 2.7 | 1.4 | · | · | · | 5 | · | 6 | 23% | -3
O=C(NCc1ccco1)Nc1ccc2nsnc2c1 | 4.8 | -1.3 | · | · | · | 6 | · | -9 | -1% | -8
O=C(c1ccc(Cn2cc(Cl)cn2)cc1)N1CCN(c2ccccc2)CC1 | 0.7 | 0.0 | · | · | · | 15 | · | -1 | 6% | -1
COC(CNC(=O)c1c[nH]c2ccc(S(=O)(=O)N3CCOCC3)cc2c1=O)OC | -0.9 | 0.5 | 6 | 8 | -1.1 | -6 | -2.0 | -1 | 1% | -12
CC(C)Cn1c(N)c(C(=O)COC(=O)c2ccc(Cl)cc2)c(=O)n(C)c1=O | -0.3 | -0.2 | -23 | -43 | -0.4 | -13 | 1.9 | 16 | 22% | 2
CN(NC1OC(=O)c2ccccc21)c1ccc(Cl)cc1[N+](=O)[O-] (stereo unspecified) | -7.2 | -0.8 | -4 | 2 | 3.2 | -9 | -10 | -18 | -5% | ·
Cc1ccc(C(=O)N/C(=C\c2ccco2)C(=O)NCCN2CCOCC2)cc1C | 4.9 | 0.2 | 4 | 1 | 0.4 | 3 | -1.9 | -13 | 4% | ·
CCCC(=O)Nc1ccc(NC(=O)Cc2ccccc2)cn1 | 0.1 | 1.1 | · | · | · | 10 | · | -9 | -4% | 4
CCOC(=O)c1c(C)c(-c2ccccc2)n(CC(=O)NCCC(C)C)c1C | 1.0 | 0.8 | -1 | 9 | 14 | 0 | -1.2 | 28 | 9% | 1
Fc1cccc(NCc2ccoc2)c1 | 1.1 | 0.7 | · | · | · | 3 | · | -27 | 30% | -1
CSc1ccccc1C(=O)N1CCC(CCC(=O)NC2CC2)CC1 | -2.0 | -0.2 | 31 | 24 | 4.4 | -4 | -11 | -5 | -4% | -8
CCOP(=O)(OCC)C(NC(C)=O)C(=O)c1ccccc1 (stereo unspecified) | -0.4 | 0.3 | 12 | 15 | 5.6 | -25 | 0.0 | -10 | 4% | -3
COc1ccc(-c2cn[nH]c2-c2ccc(OCC(=O)NN)cc2O)cc1OC | -3.2 | 0.2 | 9 | 12 | 1.7 | -4 | -7.3 | -8 | 1% | 1
CSc1cc(-c2ccc(Cl)cc2)c(C(=O)N2CCCC2)s1 | 1.2 | 0.7 | · | · | · | 1 | · | 10 | -12% | 0
COc1ccc(N2CCN(C(=O)CCNC(=O)c3ccc(C(C)(C)C)cc3)CC2)cc1 | 3.8 | -0.4 | -16 | -31 | 9.6 | 15 | 9.3 | 14 | -9% | 7

Four structures out of the list, arranged by molar mass, highest first.
SMILES | RanGTP-Impb inh | Bfl-1 A1 inh | Ecoli rRNA inh | Ecoli rRNA inh OD600 | Ecoli rRNA inh RFP | Calb FLC | AF4-AF9 inh | T cruzi inh | Vif TR-FRET | Beta apoptosis
O=C(COC(=O)Cc1ccc2c(c1)OCCO2)Nc1ccc(S(=O)(=O)N2CCCC2)cc1 | 1.1 | 0.4 | · | · | · | 2 | · | -3 | -3% | 0
CSc1ccccc1C(=O)N1CCC(CCC(=O)NC2CC2)CC1 | -2.0 | -0.2 | 31 | 24 | 4.4 | -4 | -11 | -5 | -4% | -8
O=C(NCCCSc1ccccc1)c1cc(Cl)ccc1O | 3.4 | 1.3 | -57 | -77 | -16 | 0 | -8.2 | -4 | · | 0
O=C(NCc1ccco1)Nc1ccc2nsnc2c1 | 4.8 | -1.3 | · | · | · | 6 | · | -9 | -1% | -8

Screening results: PubChem BioAssay, several laboratories
